Mtb betalactam – beta-lactam sensitization of Mtb H37Rv | inhibition, % at 25 µM | M. tuberculosis H37Rv growth with meropenem, percent inhibition; hits of this screen are not shown here | AID 434955 | 330,000 compounds, 0.27% hits;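 active = about 74% or more and at least 40 points above the plate without the antibiotic, then above 30% in a dose series; inconclusive = first-round hits that could not be retested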;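 note: growth measured after seven days incubation then overnight dye step; 0% = bacteria only wells and 100% = bacteria with antibiotic; twin plates without the antibiotic show which effects depend on it; some results filed as inactive read as strong as hits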
Mtb growth – M. tuberculosis H37Rv growth inhibitors, H37Rv strain (AID 1626); M. tuberculosis H37Rv growth inhibition; higher % means a stronger effect; inhibition, % at 10 µM; hits with a dose series show IC50 in µM; 220,000 compounds, 0.95% hits;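 active = confirmed in a dose series; inconclusive = inhibition above 80% but not taken into the dose series; inactive = below 80% or under 30% at every dose of the series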;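 note: bacteria incubated seven days before Alamar blue readout; 0% = bacteria only wells and 100% = bacteria with antibiotic wells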
Arbovirus anti – blocks arbovirus infection; inhibition, % at 10 µM; 200,000 compounds, 0.37% hits; arbovirus infection cell-based antiviral screen;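 active = inhibition from about 30%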;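 note: bluetongue infection of BSR cells; cell survival read as ATP light after 72 h; 0% = infected wells without compound and 100% = uninfected wells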
RecA intein inh – inhibitors of M. tuberculosis RecA intein splicing | P9WHJ3 | cell-free RecA intein splicing, fluorescence | inhibition, %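 (about 9 µM by stock and volumes)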 | 290,000 compounds, 0.75% hits | AID 2221; in the data active = inhibition above about 30%; inconclusive = no clear call, values can overlap the other calls;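 note: 0% = vehicle wells and 100% = reference inhibitor control wells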
Target sequence (P9WHJ3 whole entry, looked up): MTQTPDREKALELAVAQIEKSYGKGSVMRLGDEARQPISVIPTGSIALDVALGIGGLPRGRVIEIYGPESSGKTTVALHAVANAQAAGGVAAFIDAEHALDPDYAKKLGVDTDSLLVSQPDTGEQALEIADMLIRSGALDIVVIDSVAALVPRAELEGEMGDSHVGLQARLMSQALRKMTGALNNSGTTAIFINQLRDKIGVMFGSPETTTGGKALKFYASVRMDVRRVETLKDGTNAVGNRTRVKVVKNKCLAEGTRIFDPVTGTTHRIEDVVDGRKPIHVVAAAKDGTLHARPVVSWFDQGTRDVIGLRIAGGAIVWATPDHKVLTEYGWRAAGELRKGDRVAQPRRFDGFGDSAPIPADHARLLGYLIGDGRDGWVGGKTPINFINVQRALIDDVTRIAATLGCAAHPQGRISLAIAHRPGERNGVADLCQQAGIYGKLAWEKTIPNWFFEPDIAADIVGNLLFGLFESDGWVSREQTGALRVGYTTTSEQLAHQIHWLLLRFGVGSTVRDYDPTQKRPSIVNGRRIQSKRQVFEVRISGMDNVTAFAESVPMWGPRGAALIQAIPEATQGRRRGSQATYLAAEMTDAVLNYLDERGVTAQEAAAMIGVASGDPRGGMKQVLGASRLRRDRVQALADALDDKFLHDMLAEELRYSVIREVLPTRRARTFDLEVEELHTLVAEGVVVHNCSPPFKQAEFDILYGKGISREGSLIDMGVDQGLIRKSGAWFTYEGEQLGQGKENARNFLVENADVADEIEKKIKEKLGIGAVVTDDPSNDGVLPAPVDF
YopH inh – blocks Yersinia enterocolitica YopH tyrosine phosphatase | fluorescence Ex485/Em525 | inhibition, %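 (about 10 µM by stock and volumes)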 | 140,000 compounds, 0.16% hits | AID 898;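 active = inhibition of 50% or more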;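 note: controls were vehicle for no effect and minimum signal wells for full effect; inactives centre near -20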
Arbovirus anti repeat – further read-out of Arbovirus anti, marked with its call; inhibition, %; measured here: 10K subset replicate screen; many hits read low in the repeat;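 first of two repeat runs on a subset; 0% = infected and 100% = uninfected wells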
An asterisk follows results filed as active; ? = inconclusive; . = no result given.

SMILES | Mtb betalactam | Mtb growth | Arbovirus anti | RecA intein inh | YopH inh | others
Fc1ccc(OCCCCCn2ccnc2)cc1 | -6 | . | . | 1.6 | .
CCC(Sc1ncnc2sc(C)c(C)c12)C(=O)OC (stereo unspecified) | -4 | 3% | -10 | -2.1 | -9
O=C(O)c1cc(-c2ccc3c(c2)OCO3)nc2ccc(Br)cc12 | 7 | 3% | 6 | -1.8 | .
COC(=O)c1cc(NC(=O)Nc2ccccc2OC)cc(C(=O)OC)c1 | 9 | 1% | 5 | 40* | 0
Cc1ccc(S(=O)(=O)N2CCOCC2)cc1C(=O)N1CCCCCC1 | -8 | . | . | -1.7 | .
COc1cccc(N(C(=O)c2ccco2)c2nc(-c3sc(NC(=O)c4ccco4)nc3C)cs2)c1 | -1 | -5% | -27 | 0.3 | 2
Cc1c(NC(=O)CN2C(=O)NC(C)(c3ccc(Cl)cc3)C2=O)c(=O)n(-c2ccccc2)n1C (stereo unspecified) | 2 | . | . | 0.8 | .
O=C1CN(C(=O)c2cc([N+](=O)[O-])ccc2Cl)C(c2ccccc2)c2cc(F)ccc2N1 (stereo unspecified) | -6 | 9% | -1 | 3.2 | -16
Clc1ccc2[nH]cc(-c3nnnn3-c3ccccc3)c2c1 | 1 | 0% | -12 | 7.1 | -21
O=C(COC(=O)C(O)c1ccccc1)NC12CC3CC(CC(C3)C1)C2 (stereo unspecified) | 0 | 0% | -1 | -0.3 | -54

The final 7 entries of the section before open the next one:
SMILES | Mtb betalactam | Mtb growth | Arbovirus anti | RecA intein inh | YopH inh | others
COC(=O)c1cc(NC(=O)Nc2ccccc2OC)cc(C(=O)OC)c1 | 9 | 1% | 5 | 40* | 0
Cc1ccc(S(=O)(=O)N2CCOCC2)cc1C(=O)N1CCCCCC1 | -8 | . | . | -1.7 | .
COc1cccc(N(C(=O)c2ccco2)c2nc(-c3sc(NC(=O)c4ccco4)nc3C)cs2)c1 | -1 | -5% | -27 | 0.3 | 2
Cc1c(NC(=O)CN2C(=O)NC(C)(c3ccc(Cl)cc3)C2=O)c(=O)n(-c2ccccc2)n1C (stereo unspecified) | 2 | . | . | 0.8 | .
O=C1CN(C(=O)c2cc([N+](=O)[O-])ccc2Cl)C(c2ccccc2)c2cc(F)ccc2N1 (stereo unspecified) | -6 | 9% | -1 | 3.2 | -16
Clc1ccc2[nH]cc(-c3nnnn3-c3ccccc3)c2c1 | 1 | 0% | -12 | 7.1 | -21
O=C(COC(=O)C(O)c1ccccc1)NC12CC3CC(CC(C3)C1)C2 (stereo unspecified) | 0 | 0% | -1 | -0.3 | -54
Cc1[nH]nc(SCC(=O)NC2CCCCC2)c1[N+](=O)[O-] | 0 | -11% | 0 | -0.9 | .
Cc1c(C)c2ccc(OCC(=O)N3CC[C@@]4(O)CCCC[C@H]4C3)cc2oc1=O | -7 | . | . | -1.2 | .
CCC(c1nnnn1C(C)(C)C)N(Cc1ccco1)Cc1cc2cccc(C)c2[nH]c1=O (stereo unspecified) | ? | -6% | 6 | 7.3 | -1
O=C(CSc1ncc(-c2ccccc2)n1-c1ccccc1)NCc1ccco1 | 14 | -5% | -1 | 9.5 | 9
CCCCN(C(=O)c1ccc(Br)o1)C1CCS(=O)(=O)C1 (stereo unspecified) | 1 | . | . | 0.5 | .
CCCNC(=O)c1oc2ccc3c(c2c1C)C=CC(C)(C)O3 | 91 | . | . | 4.3 | .
CNC(=S)NCC(O)c1ccc([N+](=O)[O-])cc1 (stereo unspecified) | 2 | -3% | 14 | 18 | .
O=C(O)c1ccc(-c2cccc([N+](=O)[O-])c2)o1 | 8 | -4% | . | -2.0 | .
CCn1c2nc(SCCN3CCOCC3)nnc2c2cc(C)cc(C)c21 | 9 | . | . | -1.2 | .
Cc1c(NC(=O)OCc2ccccc2)c(=O)n(-c2ccccc2)n1C | 2 | 0% | 2 | 1.3 | -16 | Arbovirus anti repeat=3
COc1ccc(CC(=O)O/N=C(\N)Cc2ccc([N+](=O)[O-])cc2)cc1 | -6 | 6% | . | 2.0 | .
O=C(N/N=C/c1c(Cl)cccc1Cl)c1n[nH]c2c1CCCC2 | 3 | 6% | 2 | 2.3 | -27
Cc1cc(C)nc(NC(=O)CSc2ccccn2)n1 | 16 | 0% | 14 | -0.2 | -12
COCc1cc(C2C(C(=O)c3ccco3)=C(O)C(=O)N2CCOCCO)ccc1O (stereo unspecified) | 5 | -1% | 5 | -5.1 | -20
CN1C(=O)C(O)(CC(=O)/C=C/C=C/c2ccccc2)c2ccccc21 (stereo unspecified) | -1 | 4% | 4 | 0.6 | -26
CN1C(=O)C(=Cc2ccccc2OCc2ccc(C(=O)O)cc2)C(=O)N(C)C1=O | 4 | -6% | 4 | -0.2 | .
CCOc1ccc(NC2c3ccccc3C(=O)N2Cc2ccco2)cc1 (stereo unspecified) | -6 | 19µM* | 3 | 4.0 | -25 | Arbovirus anti repeat=12
CCOc1ccc(N=c2scc(-c3ccc(OC)cc3)n2CCO)cc1 | 60 | 28% | -11 | 3.4 | -10
CCOC(=O)c1ccc(NC(=S)N2CCSC2c2ccc(OC)cc2)cc1 (stereo unspecified) | -7 | ? | 13 | 5.4 | -28
O=C(Nc1ccccc1)c1ccc2c(c1)OCO2 | -15 | 0% | -9 | -3.3 | -1
CSCCC(NS(=O)(=O)c1ccc(C)cc1)C(=O)NC1CCCCC1 (stereo unspecified) | -3 | -6% | 17 | 1.6 | .
CC(C)CN1CN(Cc2ccco2)CNC1=S | -4 | 4% | -4 | 0.4 | -23
CC1=NOC(=O)/C1=C\c1ccc(-c2ccc(Br)cc2C(=O)O)o1 | -7 | 2% | 6 | -2.2 | .
COc1cc(NC(=O)c2cccnc2)ccc1-c1cc2ccccc2oc1=O | 5 | 7% | -3 | 2.9 | .
CC(=O)Nc1ccc(NC(=O)CCOc2ccccc2C)cc1 | -1 | . | . | -3.6 | .
O=C(CN1CCN(Cc2ccccc2)CC1)N1N=CCC1c1ccccc1 (stereo unspecified) | -10 | -1% | -4 | 0.7 | .
Cc1onc(-c2c(Cl)cccc2Cl)c1C(=O)Nc1nccs1 | 8 | . | . | 2.0 | .
O=C(Nc1ncc(Cc2ccccc2)s1)c1cccs1 | 83 | 49µM* | -13 | 1.6 | -34
COCCN(C(=O)COC(=O)CCOc1cccc(C)c1)c1c(N)n(Cc2ccccc2)c(=O)[nH]c1=O | -13 | . | . | -0.1 | .
O=C(NCC(O)c1ccc([N+](=O)[O-])cc1)c1cccc(S(=O)(=O)N2CCOCC2)c1 (stereo unspecified) | -15 | . | . | -0.7 | .

Grouped by structure: the entries above containing an aryl methoxy group.
SMILES | Mtb betalactam | Mtb growth | Arbovirus anti | RecA intein inh | YopH inh | others
COC(=O)c1cc(NC(=O)Nc2ccccc2OC)cc(C(=O)OC)c1 | 9 | 1% | 5 | 40* | 0
COc1cccc(N(C(=O)c2ccco2)c2nc(-c3sc(NC(=O)c4ccco4)nc3C)cs2)c1 | -1 | -5% | -27 | 0.3 | 2
COc1ccc(CC(=O)O/N=C(\N)Cc2ccc([N+](=O)[O-])cc2)cc1 | -6 | 6% | . | 2.0 | .
CCOc1ccc(N=c2scc(-c3ccc(OC)cc3)n2CCO)cc1 | 60 | 28% | -11 | 3.4 | -10
CCOC(=O)c1ccc(NC(=S)N2CCSC2c2ccc(OC)cc2)cc1 (stereo unspecified) | -7 | ? | 13 | 5.4 | -28
COc1cc(NC(=O)c2cccnc2)ccc1-c1cc2ccccc2oc1=O | 5 | 7% | -3 | 2.9 | .

(cont.)
SMILES | Mtb betalactam | Mtb growth | Arbovirus anti | RecA intein inh | YopH inh | others
CC[C@@H]1CC=C[C@H]2[C@H]1C(=O)N(Cc1ccccc1)[C@H]2c1ccc(C(F)(F)F)cc1 | -6 | 6% | . | 13 | .
COc1ccc(C(=O)Nc2ccccc2-c2nnn(CC(=O)N3CCOCC3)n2)cc1 | 0 | -11% | 2 | 0.7 | .
O=C(C1CCN(C2CC(=O)N(c3cccc(Cl)c3)C2=O)CC1)N1CCCCCC1 (stereo unspecified) | -6 | -3% | 3 | 6.6 | -25
O=C(/C=C/c1ccc(Cl)c(Cl)c1)NC1=NCCS1 | 3 | 5% | 4 | 2.4 | .
CC1C(=O)C(C)C(c2ccccc2F)NC1c1ccccc1F (stereo unspecified) | 6 | . | . | 1.5 | .
O=[N+]([O-])c1nn(-c2ccccc2)n(O)c1=NCCc1ccccc1 | 99 | ? | -27 | -1.9 | -7
Nc1ncnc2c1cnn2C1CCCCC1 | -10 | -3% | . | 1.3 | .
Cc1ccc(C2c3[nH]c4ccccc4c3C[C@H]3C(=O)N(c4ccccc4C(=O)N4CCC[C@@H]4C(=O)O)C(=O)N23)cc1 (stereo partly specified) | 0 | . | . | -4.0 | .
O=C(COc1ccc(Cl)cc1Cl)N/N=C/CCc1ccccc1 | 8 | 0% | -7 | 0.1 | -46
CC1CN(C(=O)c2c(Br)cnn2C)CC(C)O1 (stereo unspecified) | -11 | 1% | 5 | -0.4 | -25
Cc1nc(-n2nnc(CO)c2CO)nc2c1CCC2 | -1 | 5% | 6 | 2.3 | .
CC(Nc1ccc2c(c1)OCCO2)C(=O)N1c2ccccc2CC1C (stereo unspecified) | -4 | -1% | -1 | 7.4 | .
CN(C)Cc1c(O)ccc2c(-c3ccccc3)cc(=O)oc12 | 1 | -6% | 0 | -38 | .
CN1C(=O)c2ccccc2NC(=O)[C@]12O[C@@H]2c1ccccc1 | -3 | -10% | 3 | -1.6 | .
COc1ccc(F)c(CN2CCCC(CO)(Cc3cccc(Cl)c3)C2)c1 (stereo unspecified) | 7 | . | . | 6.3 | .
Cc1ccc(NC(=S)/C(=C(\[O-])c2ccc(F)cc2)[n+]2ccccc2)cc1 | 2 | -4% | -2 | 30* | .
CCN(CC)C(=O)c1c2c(nc3ccccc13)-c1ccccc1CC2 | 12 | -12% | -11 | 4.4 | -18
C=C(C)COc1ccc2c(C)c(CCC(=O)NC3CC3)c(=O)oc2c1 | 3 | . | . | -2.1 | .
COc1ccc2c(c1OC)C(=O)N1C2SC[C@H]1C(=O)NC1CC1 (stereo partly specified) | 2 | . | . | 0.5 | .
CC1CCCC(NC(=O)COC(=O)Cc2ccsc2)C1C (stereo unspecified) | 1 | 6% | -2 | 2.7 | -10
O=[N+]([O-])c1ccc(Oc2ccc(F)cc2)c2ccncc12 | -1 | 11% | -9 | 67* | 16
Cc1cc(-c2ccc(/C=N/n3cnnc3)o2)ccc1Cl | 95 | >100µM* | 8 | -0.6 | -30
O=C(Nc1ccc(Cl)cn1)c1cccc2c(Br)cccc12 | 35 | . | . | -0.7 | .
CC(C)NC(=S)Nc1ccc(Oc2ccccc2)cc1 | -13 | 4% | -11 | 7.2 | -25
CCOC(=O)c1c(NC(=O)c2ccc(C)cc2)sc2c1CC(C)(C)NC2(C)C | -2 | . | -19 | 0.8 | .
CC(Nc1ccc(N2CCOCC2)cc1)C(=O)N1c2ccccc2CC1C (stereo unspecified) | -5 | -14% | . | -1.6 | .
O=C(Cn1cc([N+](=O)[O-])cn1)NCc1cc2ccccc2[nH]1 | 1 | 3% | 5 | 5.0 | -30
CCCCCn1c(N)c(-c2nc3ccccc3s2)c2c([N+](=O)[O-])nn(C)c(=O)c21 | 0 | 32% | -10 | 0.4 | -35
Nc1nc(CSc2n[nH]c(-c3ccccc3)n2)nc(Nc2ccccc2)n1 | -2 | -3% | 1 | 1.4 | -6
O=[N+]([O-])c1ccc(N/N=C/c2cccnc2)cc1 | 92 | . | . | -0.1 | .
COP(=O)(C#Cc1ccccc1)C(O)c1ccc(Br)cc1 (stereo unspecified) | -4 | -12% | . | 3.4 | .
CCc1ccc(CNC(=O)CN2C(=O)COc3ccccc32)cc1 | 0 | 2% | 2 | 3.0 | -50
NC1CCCCC1N=Cc1c(O)n(CCc2ccc(F)cc2)c(=O)[nH]c1=O (stereo unspecified) | . | -1% | 3 | 1.7 | -43
COC(=O)CN1C(=O)N/C(=C/c2ccccc2OC)C1=O | -8 | -3% | 9 | -0.6 | .
O=C(CN(CC1CCCO1)C(=O)CNS(=O)(=O)c1ccc(Cl)cc1)NCc1ccco1 (stereo unspecified) | 2 | . | . | -2.8 | .
O=C(c1ccc2c(=O)n(Cc3ccccc3Cl)c(=S)[nH]c2c1)N1CCOCC1 | 4 | . | . | -2.6 | .
CCOC1CS(=O)(=O)CC1OCC (stereo unspecified) | 6 | -9% | 10 | -2.0 | -19
Cc1nn(-c2ccccc2)c2nc(-c3ccncc3)cc(C(=O)NCc3ccco3)c12 | 99 | 10% | -14 | . | -22

High-throughput results from PubChem BioAssay.

Only part of the results is shown; count on the stated rates, not on these rows.
